Screening results (PubChem BioAssay)
A1 inhib – blocks A1 activity. MEF A1-2A-BIM cells, caspase-Glo luminescence, 3 h; percent of clofoctol signal, DMSO as zero. caspase activation, % (test concentration not listed). hit rate 0.51% among 21,000. AID 2241;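 active = most replicate scores above 10, or exactly half above 10 with mean activity above 10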;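 note: effector caspase 3 and 7 activity cleaving a DEVD luciferin substrate; 50 nL library stock added to about 30 µL; numbers are from one replicate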
BJeLR viab HTS – compounds reducing viability of BJeLR cells | BJeLR fibroblasts viability, CellTiterGlo ATP luminescence, 48 h; HRASV12, hTERT and SV40 LT/ST transformed | hit rate 0.64% among 30,000 | viability loss activity score, % (concentration not given with the values); in the data active = viability loss activity score above about 50%; about a fifth of its hits are not listed in these tables;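 note: higher score means fewer live cells and less ATP luminescence; stock transfer was 50 or 100 nL into about 30 µL; 0% = vehicle wells and 100% = a reference killing control; one replicate is shown; the record names a cut of 85%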
* marks the source's active call; other numbers are inactive results; . = no result given. This is a subset; count on the stated rates, not on these rows.

The line under a structure holds: BJeLR viab HTS	A1 inhib
1	C[C@H](CO)N1C[C@H](C)[C@H](CN(C)Cc2ccc(Oc3ccccc3)cc2)Oc2c(NC(=O)Nc3ccc4c(c3)OCO4)cccc2C1=O
 : -2.3	.
2	CN(C)c1ccc2c3c(ccc(N(C)C)c13)[C@](O)(C(F)(F)F)O[C@]2(O)C(F)(F)F
 : 2.3	.
3	CC(C)Cc1ccc(S(=O)(=O)N2c3ccccc3CC2C)cc1 (centres undefined)
 : -4.7	.
4	O=c1[nH]nc(SCCS(=O)(=O)c2ccc(F)cc2)n1Cc1ccco1
 : -2.8	-0.7
5	C[C@H](CO)N1C[C@H](C)[C@@H](CN(C)Cc2ccc(-c3ccccc3)cc2)Oc2c(NC(=O)c3ccc(-c4nccs4)cc3)cccc2C1=O
 : 0.1	.
6	COc1ccccc1OCC(O)CN1CCN(CC(=O)Nc2c(C)cccc2C)CC1 (centres undefined)
 : -0.7	0.0
7	C=C1[C@H]2CC[C@]3(O)[C@@](CC[C@@H]4[C@](C)(C(=O)O)CCC[C@]43C)(C2)[C@H]1OC(=O)/C(C)=C\C
 : -1.2	0.3
8	CC(C)c1ccc(OCc2ccc(C(=O)N(C)C)o2)cc1
 : 5.4	-0.7
9	CC(=O)NCCc1csc(-c2ccccc2)n1
 : -0.7	-0.1
10	C[C@@H]1CN([C@@H](C)CO)C(=O)c2cc(NC(=O)Cc3ccccc3)ccc2O[C@H]1CN(C)C(=O)Nc1ccc(F)cc1
 : 0.5	0.7
11	C[C@H]1CN([C@@H](C)CO)C(=O)c2cccc(NC(=O)Nc3cccc4ccccc34)c2O[C@@H]1CN(C)C(=O)Nc1ccccc1
 : 4.8	.
12	O=S(=O)(c1ccc2ccccc2c1)N1CCCCC1
 : 2.6	0.3
13	CCN(CC)C(=O)C1Sc2nnc(-c3ccccc3)n2NC1c1ccc(C)cc1 (centres undefined)
 : 1.5	-0.1
14	COc1ccc(CN=C(Nc2ccccc2)SC2CC(=O)NC2=O)cc1 (centres undefined)
 : -0.1	.
15	O=C(CSc1nn(-c2ccccc2)c(=S)s1)N1N=CCC1c1ccccc1 (centres undefined)
 : -0.5	-0.7

Exported as labelled records: two of the compounds above
8. CC(C)c1ccc(OCc2ccc(C(=O)N(C)C)o2)cc1
  BJeLR viab HTS: 5.4	A1 inhib: -0.7
9. CC(=O)NCCc1csc(-c2ccccc2)n1
  BJeLR viab HTS: -0.7	A1 inhib: -0.1

(cont.)
The line under a structure holds: BJeLR viab HTS	A1 inhib
16	C[C@@H]1CN([C@@H](C)CO)C(=O)c2cc(NC(=O)Cc3cn(C)c4ccccc34)ccc2O[C@H]1CN(C)S(=O)(=O)c1cn(C)cn1
 : -3.6	0.2
17	CCCC1=C(C(=O)OCC)C(c2ccccc2Cl)C(C#N)=C(SC)N1 (centres undefined)
 : 1.2	1.1
18	C[C@H]1CN([C@@H](C)CO)C(=O)c2cc(NS(=O)(=O)c3cccs3)ccc2O[C@@H]1CN(C)CC1CCCCC1
 : 0.4	-0.2
19	CN(C)/C=C(\C#N)c1nnc(-c2ccccn2)n1C
 : 0.9	0.4
20	COc1ccc(CN(C)C[C@H]2Oc3ccc(NS(=O)(=O)c4ccc(F)cc4)cc3C(=O)N([C@@H](C)CO)C[C@H]2C)cc1
 : 5.3	-1.1
21	C[C@@H]1CN([C@H](C)CO)C(=O)c2cccc(NS(=O)(=O)c3cccs3)c2O[C@H]1CN(C)CC1CCCCC1
 : -4.9	.
22	C[C@@H]1CN([C@H](C)CO)C(=O)c2cc(N(C)C)ccc2O[C@H]1CN(C)Cc1ccc(C(F)(F)F)cc1
 : -1.0	-0.6
23	C[C@H]1CN([C@@H](C)CO)C(=O)c2cc(NC(=O)CCCN(C)C)ccc2O[C@@H]1CN(C)S(=O)(=O)c1ccc(Cl)cc1
 : -3.1	1.0
24	O=C(O)c1[nH]c2ccccc2c1CNCc1ccccc1
 : -3.6	-0.6
25	C[C@@H]1CN([C@H](C)CO)C(=O)c2cccc(NC(=O)c3nc4ccccc4s3)c2O[C@@H]1CN(C)Cc1ccc2c(c1)OCO2
 : -0.6	.
26	O=C(CCS(=O)(=O)c1ccc(Br)s1)Nc1cccc(C(F)(F)F)c1
 : 0.9	.
27	Cc1noc(C)c1NC(=O)N(C)C[C@@H]1Oc2c(NC(=O)C3CCCCC3)cccc2C(=O)N([C@H](C)CO)C[C@H]1C
 : 17.2	.
28	c1ccc(Nc2ncnc3cc(-c4ccccc4)sc23)cc1
 : 4.0	.
29	CCCCN(C)C(=O)Cn1cc2c(n1)CCCCC2
 : 0.5	-0.1
30	COc1cc2ccc(=O)oc2cc1OC
 : -4.1	-0.2
31	CCOC(=O)C1C(=O)CC(=O)C(C(=O)OCC)C1c1ccc(OC)cc1 (centres undefined)
 : -0.3	0.0
32	Cc1nn(C(=O)c2ccccc2)cc1-c1nsc(Nc2ccccc2)n1
 : 11.6	-6.7
33	Cc1ccc(-n2c(SCc3cccc(C(F)(F)F)c3)nnc2-c2ccncc2)cc1
 : 4.3	-1.2
34	CC(C)c1ccc(OCCCN2CCCC2)cc1
 : 2.1	-0.2
35	C[C@@H]1CN([C@H](C)CO)C(=O)c2cc(NC(=O)Nc3ccc(F)cc3)ccc2O[C@@H]1CN(C)S(=O)(=O)c1ccc(F)cc1
 : 8.1	1.6
36	COc1ccc(S(=O)(=O)N(C)C[C@H]2Oc3ccc(NC(=O)Nc4cccc5ccccc45)cc3C(=O)N([C@H](C)CO)C[C@@H]2C)cc1
 : -4.0	0.4
37	CC(C)NC(=O)N(C)C[C@H]1Oc2ccc(NC(=O)Nc3ccccc3)cc2C(=O)N([C@H](C)CO)C[C@H]1C
 : 1.4	-0.8
38	S=C1SCN(Cc2ccccc2)CN1Cc1ccccc1
 : -1.2	-0.5
39	Cc1ccc(C(O)C(=O)c2ccccc2)o1 (centres undefined)
 : 0.4	-3.3
40	CCCCc1nc2sc3c(NCc4ccccc4)ncnc3c2c2c1COC(C)(C)C2
 : -5.0	-1.4
41	C[C@@H]1CN([C@@H](C)CO)C(=O)c2cc(NC(=O)C3CC3)ccc2O[C@@H]1CN(C)S(=O)(=O)c1ccccc1
 : 0.5	-0.4
42	Cc1ccc(Oc2nnc(-c3cccs3)c3ccccc23)cc1
 : 1.0	-0.3
43	COc1ccc(C2C(C(=O)N(C)c3ccc(C(C)C)cc3)CC(=O)N2c2ccc(OC)cc2)cc1 (centres undefined)
 : 3.8	.
44	CCC(=O)Nc1c2c(nn1-c1ccc(C)cc1)CS(=O)C2 (centres undefined)
 : -4.5	.
45	Cc1ccc(S(=O)(=O)Nc2ccc3c(c2)C(=O)N([C@@H](C)CO)C[C@H](C)[C@H](CN(C)Cc2ccc(-c4ccccc4)cc2)O3)cc1
 : -0.3	-0.1
46	COc1ccc(NC(=S)NC2CC(C)(C)NC(C)(C)C2)cc1
 : -0.7	0.1
47	CNC[C@@H]1Oc2c(NS(C)(=O)=O)cccc2C(=O)N([C@@H](C)CO)C[C@@H]1C
 : 7.4	.
48	COc1ccccc1-c1nn(CCC(=O)NCCc2ccc(Cl)cc2)c2nc(C)cc(C)c12
 : -2.5	0.6
49	C[C@H](CO)N1C[C@H](C)[C@@H](CN(C)S(=O)(=O)c2cccs2)Oc2ccc(NS(=O)(=O)c3ccc(F)cc3)cc2C1=O
 : -2.7	-0.8
50	c1ccc(-c2nc(-c3cccnc3)n[nH]2)nc1
 : 8.9	.
51	CC(C)C1C(=O)NN(c2ccccc2)C1=S (centres undefined)
 : -1.9	0.4
52	O=C1NC2CCc3nc4ccccc4c(=O)n3C2=Nc2ccccc21 (centres undefined)
 : -4.1	0.2
53	CCc1ccc(NC(=S)NN)cc1
 : 3.2	.
54	C[C@H]1CN([C@@H](C)CO)C(=O)c2cc(NC(=O)CCC(F)(F)F)ccc2O[C@H]1CN(C)Cc1ccc2c(c1)OCO2
 : -5.8	0.5
55	CNC[C@H]1Oc2ccc(NC(=O)Cn3cnnn3)cc2C(=O)N([C@@H](C)CO)C[C@H]1C
 : -5.7	-0.5
56	CC(C)(C)n1ncc2c(=O)n(CC(=O)NC3CCCCC3)cnc21
 : 1.7	0.9
57	C[C@H]1CN([C@@H](C)CO)C(=O)c2cccc(NC(=O)c3ccc(-c4nccs4)cc3)c2O[C@H]1CN(C)Cc1ccncc1
 : -0.4	.
58	CC1CCCC(NC(=O)Nc2cccs2)C1C (centres undefined)
 : 1.1	-0.4
59	CC(C)(C)C(=O)NC(=S)Nc1ccc2c(c1)COC2=O
 : -1.2	-0.9
60	CC1CCN(C(=O)c2ccc(CSc3nc4ccncc4[nH]3)cc2)CC1
 : 6.0	-0.5

Complete entries from above. Values in the order: BJeLR viab HTS	A1 inhib
Shown for Cc1noc(C)c1NC(=O)N(C)C[C@@H]1Oc2c(NC(=O)C3CCCCC3)cccc2C(=O)N([C@H](C)CO)C[C@H]1C = 17.2	.
Shown for CC(C)(C)n1ncc2c(=O)n(CC(=O)NC3CCCCC3)cnc21 = 1.7	0.9
Shown for C[C@H]1CN([C@@H](C)CO)C(=O)c2cc(NS(=O)(=O)c3cccs3)ccc2O[C@@H]1CN(C)CC1CCCCC1 = 0.4	-0.2

Continued.
The line under a structure holds: BJeLR viab HTS	A1 inhib
61	Cn1c(O)c(C=NCc2ccc3c(c2)OCO3)c(=O)n(C)c1=S
 : 0.1	-1.4
62	Cc1noc(C)c1NC(=O)Nc1cccc2c1O[C@@H](CN(C)S(=O)(=O)c1cn(C)cn1)[C@@H](C)CN([C@H](C)CO)C2=O
 : 5.4	.
63	C[C@H]1CN([C@@H](C)CO)C(=O)c2cccc(NC(=O)c3ccc(-c4nccs4)cc3)c2O[C@@H]1CN(C)S(=O)(=O)c1ccc(F)cc1
 : -3.3	.
64	C[C@H](CO)N1C[C@H](C)[C@@H](CN(C)Cc2ccc(Oc3ccccc3)cc2)Oc2c(NS(=O)(=O)c3ccc(F)cc3)cccc2C1=O
 : -1.9	.
65	O=C(Cn1cnc2sc3c(c2c1=O)CCCC3)NCCC(=O)N1CCN(c2ccc(F)cc2)CC1
 : -3.0	0.5
66	COc1ccc(/C=C2\SC(=N)N(c3ccc(OC)cc3)C2=O)cc1
 : -1.0	-0.1
67	O=c1oc2cc(OCc3ccc(C(F)(F)F)cc3)ccc2cc1-c1ccccn1
 : 0.3	-0.2
68	O=c1c2ccccc2nc2n1CCC2O (centres undefined)
 : -3.0	0.1
69	C[C@@H]1CN([C@H](C)CO)C(=O)c2cccc(NC(=O)C3CCCCC3)c2O[C@H]1CN(C)C(=O)NC1CCCCC1
 : -0.4	.
70	C[C@@H]1CN([C@@H](C)CO)C(=O)c2cc(NC(=O)Nc3ccc(F)cc3)ccc2O[C@H]1CN(C)C(=O)Nc1ccccc1
 : 3.9	-0.8
71	O=c1c2cc3c(cc2[nH]c(=S)n1CCc1ccccc1Cl)OCO3
 : -5.9	-0.3
72	C[C@H]1CN([C@@H](C)CO)C(=O)c2cccc(NC(=O)Nc3ccccc3)c2O[C@H]1CN(C)S(=O)(=O)c1cn(C)cn1
 : -3.9	.
73	COc1ccc(NC(=O)N(C)C[C@H]2Oc3c(NC(=O)Nc4ccc(C(F)(F)F)cc4)cccc3C(=O)N([C@@H](C)CO)C[C@@H]2C)cc1
 : 0.8	.
74	CCC(C)NC(=O)Cn1c(=O)n(CC(=O)NCc2ccc(C)cc2)c(=O)c2sccc21 (centres undefined)
 : -9.0	.
75	N/N=C(/Cn1nnc(N2CCCCC2)n1)c1ccc(Cl)cc1
 : -3.5	0.4
76	Cc1noc(C)c1NC(=O)Nc1ccc2c(c1)C(=O)N([C@@H](C)CO)C[C@H](C)[C@@H](CN(C)C(=O)NC1CCCCC1)O2
 : -6.0	-0.7
77	COc1cc2c(cc1OC)C(COc1ccccc1OC)N(C(=O)/C=C/c1ccccc1)CC2 (centres undefined)
 : -0.4	-1.3
78	CNC[C@H]1Oc2ccc(NC(=O)Cn3cnnn3)cc2C(=O)N([C@H](C)CO)C[C@H]1C
 : -5.8	0.4
79	COc1ccc(NC(=O)N(C)C[C@@H]2Oc3ccc(NS(=O)(=O)c4cccs4)cc3C(=O)N([C@H](C)CO)C[C@@H]2C)cc1
 : -1.4	-0.6
80	C[C@@H]1CN([C@@H](C)CO)C(=O)c2cc(NC(=O)Cc3ccccc3)ccc2O[C@@H]1CN(C)Cc1ccc(C(=O)Nc2ccccc2N)cc1
 : 14.3	.
81	C[C@@H]1CN([C@H](C)CO)C(=O)c2cc(NS(=O)(=O)c3cn(C)cn3)ccc2O[C@@H]1CN(C)Cc1ccc(Cl)c(Cl)c1
 : -1.8	0.1
82	Cc1ccc(CNc2ccc(N3CCOCC3)c(Cl)c2)s1
 : -4.9	.
83	CC1OC(OCC2OC(OCC3(C)C(O)CCC4(C)C3CCC3(C)C4CCC4C5=CC(C)(C)CCC5(C(=O)O)CCC43C)C(O)C(O)C2O)C(O)C(O)C1O (centres undefined)
 : -3.1	-0.2
84	CC(C)NC(=O)N(C)C[C@H]1Oc2c(cccc2N(C)C)C(=O)N([C@H](C)CO)C[C@H]1C
 : -3.5	.
85	O=c1ccc2cc(S(=O)(=O)NCCN3CCN(c4cccc(Cl)c4)CC3)ccc2[nH]1
 : -0.5	-0.7
86	O=C(COc1ccc(NS(=O)(=O)c2cccc3cccc(Cl)c23)cc1)N1CCOCC1
 : 2.7	0.1
87	O=C(Nc1cccc(Cl)c1)Nc1ccccc1N1CCCCC1
 : -1.3	-0.6
88	COc1ccc(NC(=O)N(C)C[C@@H]2Oc3ccc(NC(=O)Cn4cnnn4)cc3C(=O)N([C@H](C)CO)C[C@@H]2C)cc1
 : -0.2	-0.2
89	CSc1nc(-c2cccnc2)nc(-c2ccc(OC(F)(F)F)cc2)c1C#N
 : -8.0	-0.3
